# High-throughput results (PubChem BioAssay)
# Mtb betalactam: beta-lactam sensitization of Mtb H37Rv; M. tuberculosis H37Rv growth with meropenem, percent inhibition; hits of this screen are not shown here; inhibition, % at 25 µM; 330,000 tested, 0.27% active; AID 434955;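 active = about 74% or more and at least 40 points above the plate without the antibiotic, then above 30% in a dose series; inconclusive = first-round hits that could not be retested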;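 also: growth measured after seven days incubation then overnight dye step; 0% = bacteria only wells and 100% = bacteria with antibiotic; twin plates without the antibiotic show which effects depend on it; some results filed as inactive read as strong as hits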
# Mtb H37Rv: M. tuberculosis H37Rv growth inhibitors, H37Rv strain (AID 1626); M. tuberculosis H37Rv growth inhibition; higher % means a stronger effect; inhibition, % at 10 µM, or IC50 in µM where a hit was titrated; 220,000 tested, 0.95% active;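 active = confirmed in a dose series; inconclusive = inhibition above 80% but not taken into the dose series; inactive = below 80% or under 30% at every dose of the series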;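 also: bacteria incubated seven days before Alamar blue readout; 0% = bacteria only wells and 100% = bacteria with antibiotic wells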
# Arbovirus inh: arbovirus infection inhibition; arbovirus infection cell-based antiviral screen; inhibition, % at 10 µM; 200,000 tested, 0.37% active; AID 1251;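 active = inhibition from about 30%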;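 also: bluetongue infection of BSR cells; cell survival read as ATP light after 72 h; 0% = infected wells without compound and 100% = uninfected wells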
# YopH PTP inh: YopH (Yersinia) phosphatase inhibition. inhibition, %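 (about 10 µM by stock and volumes)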. 140,000 tested, 0.16% active. AID 898. fluorescence Ex485/Em525;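 active = inhibition of 50% or more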;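 also: controls were vehicle for no effect and minimum signal wells for full effect; inactives centre near -20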
# RecA intein inh: blocks M. tuberculosis RecA intein splicing | P9WHJ3 | cell-free RecA intein splicing, fluorescence | inhibition, %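 (about 9 µM by stock and volumes)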 | 290,000 tested, 0.75% active; in the data active = inhibition above about 30%; inconclusive = no clear call, values can overlap the other calls;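 also: 0% = vehicle wells and 100% = reference inhibitor control wells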
# Target sequence (P9WHJ3 whole entry, looked up): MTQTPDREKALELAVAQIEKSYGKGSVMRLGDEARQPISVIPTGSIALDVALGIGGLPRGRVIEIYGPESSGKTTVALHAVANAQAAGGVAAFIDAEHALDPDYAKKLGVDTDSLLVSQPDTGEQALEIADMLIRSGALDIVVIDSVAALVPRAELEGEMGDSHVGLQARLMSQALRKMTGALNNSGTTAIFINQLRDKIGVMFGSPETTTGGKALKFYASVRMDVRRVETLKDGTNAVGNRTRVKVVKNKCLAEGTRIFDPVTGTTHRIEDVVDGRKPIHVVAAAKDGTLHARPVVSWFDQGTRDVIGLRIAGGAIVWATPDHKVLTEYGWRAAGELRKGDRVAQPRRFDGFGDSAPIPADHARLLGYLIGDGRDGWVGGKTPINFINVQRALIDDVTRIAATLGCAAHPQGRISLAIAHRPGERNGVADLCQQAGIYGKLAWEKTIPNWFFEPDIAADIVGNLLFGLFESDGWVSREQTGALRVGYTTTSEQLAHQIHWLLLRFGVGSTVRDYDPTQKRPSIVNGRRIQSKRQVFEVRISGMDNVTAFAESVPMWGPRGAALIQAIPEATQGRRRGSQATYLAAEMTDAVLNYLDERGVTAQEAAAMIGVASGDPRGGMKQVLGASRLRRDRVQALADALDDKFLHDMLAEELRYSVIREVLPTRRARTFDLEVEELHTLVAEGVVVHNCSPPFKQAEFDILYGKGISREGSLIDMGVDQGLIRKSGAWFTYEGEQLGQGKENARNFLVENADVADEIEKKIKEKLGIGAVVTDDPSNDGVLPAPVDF
# Arbovirus inh repeat: also measured in Arbovirus inh; calls as there; inhibition, %; measured here: 10K subset replicate screen; many hits read low in the repeat;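 first of two repeat runs on a subset; 0% = infected and 100% = uninfected wells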
# Numbers without * were called inactive; ? = inconclusive; . = not tested or not shown.
SMILES,Mtb betalactam,Mtb H37Rv,Arbovirus inh,YopH PTP inh,RecA intein inh,others
COc1ccc(CCNC(=O)c2cn(C)c3ccc(S(=O)(=O)N4CCOCC4)cc3c2=O)cc1OC,-11,.,.,.,4.5,
COc1ccc(CN2C(=O)c3ccccc3C(/C=N/OCc3ccc(Cl)cc3)C2=O)cc1 (configuration not stated),-9,11%,-4,-6,-12,
Cc1cccc(NC(=O)c2cc([N+](=O)[O-])ccc2Cl)c1O,-4,2%,11,.,3.5,
CCOC(=O)N1CCN(C(=O)CN(C)S(=O)(=O)c2ccc3c(c2)C(C)(C)C(=O)N3C)CC1,0,.,9,-42,-0.8,
CCCCC(=O)N(c1ccc(C(=O)O)cc1)c1nc(-c2ccc(Cl)cc2)c(CC)s1,8,11%,14,.,-1.3,
COC(=O)C(C)n1nc(C)n(-c2ccc(C)cc2)c1=O (configuration not stated),3,0%,9,-13,1.0,
Nc1nnc(-c2ccncc2)s1,4,0%,-1,-3,-0.3,
CC(O)c1nc2ccccc2n1C(C)c1ccccc1 (configuration not stated),6,.,.,.,0.1,
COc1ccnc(NCc2cccnc2)c1C#N,3,2%,-3,-38,-3.6,
CCNC(=S)NNC(=O)c1cc(C2CC2)nc2ccccc12,-16,.,13,-34,2.4,
CC(C(=O)Nc1ccc(Cl)cc1)c1ncc(C(F)(F)F)cc1Cl (configuration not stated),-10,2%,3,-12,-0.9,
O=C(O)COCC(=O)N1CCN(C2c3ccccc3-c3ccccc32)CC1,-1,-6%,.,.,2.7,
CCOC(=O)c1cn(-c2ccc([N+](=O)[O-])cc2)c2cc(Cl)c([N+](=O)[O-])cc2c1=O,-4,-1%,-9,-20,1.7,
NC(=O)c1ccc(NC(=O)CNCc2ccccc2Cl)cc1,-2,.,.,.,-9.7,
CCCCc1ccc(/C=C2/C(=O)ON=C2c2ccccc2)s1,99,65%,8,-33,2.8,
Nc1ccc(-c2n[nH]c(=O)c3ccccc23)cc1N,-8,5%,-19,8,0.7,
Cc1ccccc1CNS(=O)(=O)c1ccccc1[N+](=O)[O-],-2,1%,3,.,2.4,
Cc1nn(S(=O)(=O)c2ccc(F)cc2)c(C)c1S(=O)(=O)N1CCOCC1,-3,.,.,.,-0.5,
COc1ccc(CCNC(=O)c2ccc3c(c2)NC(=O)C(N2CCOCC2)S3)cc1OC (configuration not stated),-5,0%,3,-6,1.0,
CC(C)c1ccc(NC(=O)COc2ccc(C3SCCS3)cc2)cc1,50,>100µM*,.,.,1.8,
CCC(=O)Nc1nc(CC(=O)Nc2ccccc2OC)cs1,-6,6%,1,-5,-0.2,
CCC(CC)NC(=O)c1cc([N+](=O)[O-])ccc1N1CCOCC1,4,-13%,-6,-23,2.5,
CCOC(=O)c1cc(-c2ccc(C)c([N+](=O)[O-])c2)nc2c1c(=O)n(C)c(=O)n2C,3,9%,5,.,-1.9,
COc1cccc(C(=O)Nc2cc3c(cc2C(C)=O)OCCO3)c1,3,7%,1,-12,-4.9,
Cc1ccc(/C=C(\C#N)C(=O)NCC2CCCO2)o1 (configuration not stated),-3,5%,-1,-9,1.3,

# (next part)
SMILES,Mtb betalactam,Mtb H37Rv,Arbovirus inh,YopH PTP inh,RecA intein inh,others
COc1cccc(C2=NOC(C(=O)Nc3ccc(C(C)=O)cc3)C2)c1 (configuration not stated),-2,-7%,6,-21,0.2,
CCCc1cc2c(-c3ccccc3)cc(=O)oc2cc1OCc1ccc(C(=O)O)o1,-5,-3%,-13,.,9.7,
CCOc1ccc(OCCC(=O)NNC(=O)c2cc(C)oc2C)cc1,-4,.,.,.,0.3,
CN(CC(O)COc1ccc(OCC(O)CN(C)C2CCCCC2)cc1)C1CCCCC1 (configuration not stated),-11,18%,-25,7,0.1,
COc1cc([N+](=O)[O-])ccc1-c1ccc(/C=N/NC(=O)c2ccccc2O)o1,.,-2%,.,.,-7.5,
CC(Oc1ccc2ccc(=O)oc2c1)C(=O)NC1CCN(Cc2ccccc2)CC1 (configuration not stated),-2,.,.,.,-0.7,
O=C(NC1CCCC1)c1ccc(Br)c(S(=O)(=O)N2CCCCC2)c1,1,.,.,.,-2.4,
CCc1cccc(C)c1NC(=S)NCc1ccc2c(c1)cc(C)n2C,-3,64%,2,-22,5.8,
COc1ccc(OC)c(NC(=O)CSCC(=O)O)c1,-4,-3%,2,-36,1.3,
COc1ccc(C(=O)NNC(=O)c2ccc(S(=O)(=O)N3CC(C)OC(C)C3)cc2)cc1 (configuration not stated),3,3%,2,.,-2.9,
O=C(O)c1nccnc1C(=O)Nc1ccccc1-c1ccccc1,-4,0%,.,.,0.7,
COC(=O)C(C)Sc1ccc2nnc(-c3ccccc3)n2n1 (configuration not stated),-2,3%,3,.,-1.3,
O=C(NC1CCCCC1)C(c1ccccc1)N1CCc2ccccc21 (configuration not stated),-4,-2%,-21,-9,-0.5,
COc1ccc(C)cc1NC(=O)c1cccc(C(=O)Nc2cc(C)ccc2OC)n1,-2,.,.,.,-1.2,
O=C1c2ccccc2C(=O)N1CCCCN(C(=O)c1ccco1)c1ccc(Cl)cc1,-3,-8%,3,-25,-0.8,Arbovirus inh repeat=-2
COc1ccc(S(=O)(=O)N2CCCCCC2)cc1C(=O)N(C)Cc1ccccc1F,-11,.,.,.,3.3,
COC(=O)CCC(=O)OC1(C)C(=O)C2=CN(C(CO)CO)C(c3ccc(OC)cc3)=CC2=C(Br)C1=O (configuration not stated),1,-11%,.,.,-11,
Cc1cccc(C)c1NC(=S)N(CCCN1CCCCC1)Cc1ccco1,-5,0%,13,.,-2.4,
CCOC(=O)CNC(=O)c1ccc2[nH]c3ccccc3c2c1,9,.,-6,.,-0.3,
Oc1ccc(C=Nc2cccc3ccccc23)c(O)c1,24,.,.,.,5.4,
O=C1CC(N2CCN(c3ccccc3)CC2)C(=O)N1c1cccc(Br)c1 (configuration not stated),-2,.,.,.,6.2,
COc1ccccc1C(CC(=O)O)NS(=O)(=O)c1ccc2c(c1)N(C(C)=O)CC(C)O2 (configuration not stated),-6,.,.,.,0.9,
Cc1ccc(Cl)cc1NC(=O)CN1CCN(S(=O)(=O)N2CCC(C)CC2)CC1,-7,.,.,.,0.4,
COc1cc(/C=C(\C#N)c2ccccn2)ccc1OCC(=O)Nc1ccc(Br)cc1,8,-1%,-35,-25,-18,
CCOc1ccc2nc(NC(=O)c3cnc(C)cn3)sc2c1,98,4.8µM*,-11,-9,-1.5,

# (further entries)
SMILES,Mtb betalactam,Mtb H37Rv,Arbovirus inh,YopH PTP inh,RecA intein inh,others
Cc1cccc(OCC(=O)NC(=S)NNC(=O)c2ccncc2)c1,?,.,.,.,0.2,
COC(=O)c1ccccc1NC(=O)c1cc([N+](=O)[O-])nn1Cc1ccccc1,-3,-5%,-2,-28,.,
Cc1c(Cl)cccc1NC(=O)CCNC(=O)N1CC(=O)Nc2ccccc21,-4,.,.,.,-1.2,
CC(=O)NC1C(=O)N=C(SCC(=O)NC2CCCCC2)NC1=O (configuration not stated),-2,0%,8,-38,-0.4,
CCOC(=O)c1cn[nH]c1N,95,>100µM*,-4,-2,-0.1,Arbovirus inh repeat=1
Cc1ccccc1C(=O)OC1CCN(C)CC1,-4,.,.,.,-1.1,
COc1ccc(NC(=O)Nc2ccccc2C(N)=O)cc1,1,1%,4,.,1.8,
COc1cccc2[nH]c(C(=O)NC(C)c3ccccc3)cc12 (configuration not stated),2,.,.,.,2.8,
Cc1ccc(S(=O)(=O)Nc2ccccc2)cc1C(=O)N1CCCC1,-4,.,.,.,-1.7,
CCN(CC)c1ccc(/C=c2/sc3nnc(-c4ccccc4C)n3c2=O)cc1,10,7%,-6,-8,0.3,
CCn1c(CCc2ccccc2)nc2ccccc21,8,.,.,.,1.6,
c1ccc(CN2CCN(Cc3nnc(-c4ccccc4)o3)CC2)cc1,-8,0%,15,.,-1.2,
C=CCc1cccc(OC)c1OCCOCCn1ccnc1,-3,1%,-1,-6,-1.9,
Cc1cccc(CN2CCSCC2)c1,-2,.,.,.,0.9,
CCN1CCc2c(C#N)c(N3CCCCC3)nc(N3CCOCC3)c2C1,-14,1%,13,-39,-6.1,
O=C(Nc1ccccc1)Nc1ccc2snnc2c1,2,2%,-22,-14,3.7,
Cc1cccc(N2C(=O)SC(N(C)c3ccccc3)C2=O)c1 (configuration not stated),3,-3%,-6,-45,3.8,
CCc1c(C)sc(NC(=O)c2cccs2)c1C(N)=O,4,2%,-2,-10,-4.0,
NC1=NC(=O)/C(=C/C=C/c2cccs2)S1,-10,.,.,.,2.3,
O=S(=O)(Nc1nc2ccccc2s1)c1cnc(Cl)c(Br)c1,-7,-19%,.,.,-0.3,
C[C@H]1CN=C(Nc2ccccc2)N1CCC1CCCCC1,-10,.,.,.,0.5,
Cc1c(/C=C/C(=O)c2ccccc2O)cnn1C,0,3%,-5,-23,0.5,
O=C(O)CCCCCNC(=O)/C(=C\c1ccco1)NC(=O)c1ccco1,-5,.,.,.,1.0,
O=C(NCc1ccccc1Cl)NC(=O)c1ccccc1,-2,6%,9,.,-1.0,
CCCCn1nc(C(=O)Nc2ccc(S(=O)(=O)Nc3ncccn3)cc2)c2ccccc2c1=O,-13,-5%,-3,.,1.1,

# Remaining list, next part.
SMILES,Mtb betalactam,Mtb H37Rv,Arbovirus inh,YopH PTP inh,RecA intein inh,others
CCOC(=O)C1CCCN(Cc2ccc(OC)cc2OC)C1 (configuration not stated),-1,-16%,1,-2,-0.4,
CN(C)CCCn1c(N)c(S(=O)(=O)c2ccccc2)c2nc3ccccc3nc21,-13,-16%,.,.,11,
CCC(Sc1nc2cc(OC)c(OC)cc2c(=O)n1Cc1ccco1)C(=O)NCCOC (configuration not stated),?,-6%,12,4,-0.2,
O=C(NCc1ccccc1)[C@@H]1C[C@H]1[C@@H](NP(=O)(c1ccccc1)c1ccccc1)c1ccccc1,1,-3%,1,-16,1.5,
O=C(/C=C\c1ccc2c(c1)OCO2)Nc1nnc(SCC(=O)OCc2ccccc2)s1,56,20%,-16,-31,-1.2,
COC(=O)C1CCN(C(=O)[C@H](C)NC(=O)C2CC(=O)N(c3ccc(F)cc3)C2)CC1 (some centres not stated),1,.,.,.,-1.3,
O=C(/C=C/c1ccccc1)NC1CC2CCCC(C1)N2Cc1ccccc1 (configuration not stated),-2,0%,.,.,2.2,
CC(=O)Oc1ccc(OC(C)=O)c(SCCCCCCl)c1,.,2%,-32,.,18,
Cc1ccnc(NC(=O)c2ccc(NC(=O)c3ccco3)cc2)c1,-4,-3%,-2,32,1.9,
O=C(CSc1nnc(-c2ccccc2)n1-c1ccc(Cl)cc1)NC1CCS(=O)(=O)C1 (configuration not stated),6,-2%,-5,-19,0.2,
COc1ccc(S(=O)(=O)N2CN(Cc3ccco3)c3nc4ccccc4nc32)cc1,-5,-2%,-8,-24,2.8,
CC(C)(C)C(=O)Nc1nnc(SCC(=O)NCc2cccs2)s1,5,-4%,6,1,2.3,
CN1CCN(C(=O)COCc2cc(-c3ccc4c(c3)OCO4)on2)CC1,?,.,.,.,-1.6,
CC(=O)NC(C(=O)NCC(N)=O)C(C)C (configuration not stated),4,-1%,8,2,-1.0,
Cn1c(=O)c2c(nc(OCc3ccccc3)n2C)n(C)c1=O,1,-3%,3,-34,1.4,Arbovirus inh repeat=1
CCOc1ccc(CCNC(=O)C2CCCN(C(=O)N(C)C)C2)cc1OCC (configuration not stated),-6,-4%,-5,-6,1.6,
O=[N+]([O-])c1ccc(COn2nnc3ccccc32)cc1,-4,9%,6,.,.,
CN1CCc2c(sc(NC(=O)c3cc4cc([N+](=O)[O-])ccc4s3)c2C(N)=O)C1,.,3%,-36,.,-0.6,

# Of the compounds above, four contain an NH in an aromatic ring:
SMILES,Mtb betalactam,Mtb H37Rv,Arbovirus inh,YopH PTP inh,RecA intein inh,others
Nc1ccc(-c2n[nH]c(=O)c3ccccc23)cc1N,-8,5%,-19,8,0.7,
CCOC(=O)CNC(=O)c1ccc2[nH]c3ccccc3c2c1,9,.,-6,.,-0.3,
CCOC(=O)c1cn[nH]c1N,95,>100µM*,-4,-2,-0.1,Arbovirus inh repeat=1
COc1cccc2[nH]c(C(=O)NC(C)c3ccccc3)cc12 (configuration not stated),2,.,.,.,2.8,

# Arranged by number of heavy atoms (lowest first): part of the list above
SMILES,Mtb betalactam,Mtb H37Rv,Arbovirus inh,YopH PTP inh,RecA intein inh,others
CCOC(=O)C1CCCN(Cc2ccc(OC)cc2OC)C1 (configuration not stated),-1,-16%,1,-2,-0.4,
Cc1ccnc(NC(=O)c2ccc(NC(=O)c3ccco3)cc2)c1,-4,-3%,-2,32,1.9,
O=C(CSc1nnc(-c2ccccc2)n1-c1ccc(Cl)cc1)NC1CCS(=O)(=O)C1 (configuration not stated),6,-2%,-5,-19,0.2,

# This is a subset (hit frequency here may not be typical).
